MLL AF4-AF9 inh = inhibitors of human MLL-AF4/AF9 interaction | P42568 | AlphaScreen, biotin-AF4 peptide binding to FLAG-AF9 | inhibition, % at 10 µM | 350,000 tested, 0.47% active;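 active means every replicate reaching a set inhibition limit, whatever the replicate mean, cut at about 25% in these data; inconclusive means mean inhibition reaches that limit but some replicates miss it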;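 further: 0% = plate neutral control median and 100% = total signal loss; the record names both 10 and 1 µM as test concentration; the first replicate is given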
Target sequence (P42568 whole entry, looked up): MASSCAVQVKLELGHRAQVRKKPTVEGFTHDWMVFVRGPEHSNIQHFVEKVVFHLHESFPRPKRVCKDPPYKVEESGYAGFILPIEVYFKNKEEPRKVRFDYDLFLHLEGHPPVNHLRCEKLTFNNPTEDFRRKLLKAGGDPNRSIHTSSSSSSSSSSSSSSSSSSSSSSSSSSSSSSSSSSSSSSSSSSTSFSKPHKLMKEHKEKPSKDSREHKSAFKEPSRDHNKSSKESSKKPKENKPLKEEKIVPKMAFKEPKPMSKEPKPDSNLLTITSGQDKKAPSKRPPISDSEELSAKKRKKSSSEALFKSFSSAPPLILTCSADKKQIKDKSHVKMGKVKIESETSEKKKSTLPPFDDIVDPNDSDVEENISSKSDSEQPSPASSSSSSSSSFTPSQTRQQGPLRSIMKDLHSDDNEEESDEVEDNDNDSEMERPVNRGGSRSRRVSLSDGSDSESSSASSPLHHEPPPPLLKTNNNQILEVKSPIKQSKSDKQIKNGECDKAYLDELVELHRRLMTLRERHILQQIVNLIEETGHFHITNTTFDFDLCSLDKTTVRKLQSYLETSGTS
FGF22 binding = shifts melting point of recombinant human FGF22 | calls only at 9.99 µM | 340,000 tested, 1.5% active | recombinant FGF22 thermal shift, SYPRO orange fluorescence; percent of sucrose octasulfate shift, DMSO zero;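 active means melting point raised past a set limit in the mean and every replicate; inconclusive means no clear call; three in four hits are not shown here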
Target sequence (Q9HCT0 whole entry, looked up): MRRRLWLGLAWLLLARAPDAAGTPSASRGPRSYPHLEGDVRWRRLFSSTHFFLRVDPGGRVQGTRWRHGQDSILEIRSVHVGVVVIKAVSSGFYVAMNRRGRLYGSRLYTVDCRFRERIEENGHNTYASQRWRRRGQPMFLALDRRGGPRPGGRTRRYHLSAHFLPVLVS
T cruzi inh = T. cruzi replication inhibition | T. cruzi beta-gal in NIH3T3, luminescence, 90 h | inhibition, % (no concentration beside the values) | 300,000 tested, 1.4% active | AID 1885;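 active means mean inhibition across valid replicates above about 55%, limit read from the data; inconclusive means mean below that limit but half or more replicates reach it; inactive means mean below it, under half of replicates reach it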;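 further: signal also drops with host cell toxicity which is not excluded here; 0% = plate median of DMSO wells and 100% = zero luminescence signal; higher percent means less beta-gal luminescence so fewer parasites; stock transfer was 50 nL into about 50 µL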
Ecoli rRNA inh = inhibitors of bacterial rRNA selective over humanized ribosomes | GFP signal change (wild-type ribosome), % (concentration not given with the values) | 350,000 tested, 1.6% active | AID 720706 | E. coli WT GFP vs humanized-ribosome RFP mutants, fluorescence, 24 h; stronger effect = lower value; DMSO median 0, no signal -100;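 active means significant combined selectivity score with lowered wild-type GFP, culture density cut under 30%, mutant RFP and density less affected; inactive means any of these conditions unmet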; further: one replicate is shown; some compounds called inactive have numbers as strong as hits
ALR H2O2 inh = human ALR oxidase inhibition via reduced H2O2. P55789. purified ALR, DTT oxidation, H2O2 HRP-luminol luminescence. inhibition, % (test concentration not listed). 290,000 tested, 3.8% active;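 active means mean and each replicate at 75% or more; inconclusive means only one of the two met; inactive means neither met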;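 further: stock transfer was 7.5 nL into about 7.5 µL; 0% = neutral wells and 100% = wells with inactivated enzyme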
Target sequence (P55789 whole entry, looked up): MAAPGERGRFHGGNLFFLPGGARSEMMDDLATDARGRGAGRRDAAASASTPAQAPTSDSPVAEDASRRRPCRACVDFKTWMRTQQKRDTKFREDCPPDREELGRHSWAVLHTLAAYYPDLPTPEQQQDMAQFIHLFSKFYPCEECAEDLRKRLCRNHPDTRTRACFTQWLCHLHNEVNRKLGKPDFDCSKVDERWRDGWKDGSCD
RanGTP-Impb inh = disruptors of Ran-importin-beta complex formation – biochemical, FRET, CFP-Ran, YFP-importin-beta, homogeneous, primary screen | inhibition, % (no concentration beside the values) | cell-free CFP-Ran/YFP-importin-beta FRET ratio | 300,000 tested, 1.1% active;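 active means most replicates above 15%; inconclusive means exactly half above 15%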;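 further: 0% = DMSO wells and 100% = Ran loaded with GDP instead of GTP; wells of about 40 µL received 100 nL stock; the first replicate is given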
Beta cell apopt = blocks beta cell apoptosis | INS-1E cytokine-induced death, ATP luminescence, 48 h; percent of positive-control rescue, neutral wells zero | protection from apoptosis, % (no concentration beside the values) | 300,000 tested, 0.8% active | AID 435005;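 active means all replicates at 75% or more, or half of them and the mean; inconclusive means half reach 75% but not the mean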;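 further: 0% = cytokine-treated negative control wells and 100% = positive control rescue; higher means more ATP so stronger rescue from cytokine killing; wells of about 40 µL received 100 nL stock; the first replicate is given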
Calb FLC = affects C. albicans growth with fluconazole. C. albicans CaCi-2 (fluconazole-resistant clinical isolate) + fluconazole, Alamar Blue growth, 48 h. 300,000 tested, 0.57% active. AID 1979. growth inhibition, % (test concentration not listed);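 active means most replicates above 75%; inconclusive means exactly half above 75%; inactive means most below 75%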;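 further: all wells also contain fluconazole at 8 µg/ml as a sub-toxic cotreatment; 0% = median of DMSO wells and 100% = median of geldanamycin control wells; wells of about 8 µL received 7.5 nL stock; the first replicate is given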
Ecoli rRNA inh OD600 = recorded beside Ecoli rRNA inh, whose call it bears; OD600 change, %; measured here: OD600 growth;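 optical density of the mix in the first replicate; 0 = DMSO median and -100 = no signal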
Ecoli rRNA inh RFP = further read-out of Ecoli rRNA inh, marked with its call; RFP signal change, %; measured here: RFP humanized mutant strains;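 first replicate; 0 = DMSO median and -100 = no signal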
Active calls of the source: *; i = inactive; ? = inconclusive; nt = no result given; & = joins results of further samples. These rows are one share of the data; the hit share may differ from the screen's.

SMILES | MLL AF4-AF9 inh | FGF22 binding | T cruzi inh | Ecoli rRNA inh | Ecoli rRNA inh OD600 | Ecoli rRNA inh RFP | ALR H2O2 inh | RanGTP-Impb inh | Beta cell apopt | Calb FLC
COC(=O)C1=C(c2cccc(OCc3ccccc3)c2)C[C@@H]2CC[C@H]1N2C(=O)NCCN1CCOCC1 | 0.4 | i | nt | -10 | 0 | 34 | 0 | nt | 0 | nt
CN1C(=O)N(C)C(=O)C2(Cc3c(ccc4ccccc34)N(C)C2)C1=O | nt | nt | 0 | nt | nt | nt | 99* | 1.0 | nt | ?
CC1CCCCN1Cc1c[nH]c2ccccc12 (configuration not stated) | 2.4 | i | 17 | -1 | 8 | 6.2 | 20 | -3.9 | 6 | 4
O=C(c1ccc(Br)cc1)C12CN3CN(CN(C3)C1)C2 | 3.2 | i | -4 | 18 | 7 | 1.3 | -7 | ? | nt | -10
Cc1cc(C)n2nc(SCC(=O)N3CCC4(CC3)OCCO4)nc2n1 | nt | nt | -2 | nt | nt | nt | 6 | -3.7 | -2 | -18
OC1/C(=C/c2ccc(Cl)cc2Cl)N2CCC1CC2 (configuration not stated) | 0.1 | i | -4 | -1 | -5 | 2.5 | 2 | 1.5 | 0 | 0
O=c1[nH]c(=O)n(CCc2ccc(F)cc2)c(O)c1C=NCCCN1CCOCC1 | nt | nt | 6 | nt | nt | nt | -2 | 5.9 | 1 | -13
CC(C)Nc1nc(Cl)nc(NC(C)C)n1 | nt | nt | 5 | nt | nt | nt | 2 | 2.3 | -9 | -5
COC(=O)C1=C(c2ccc3ccccc3c2)C[C@@H]2CC[C@H]1N2C(=O)NCc1ccco1 | 12 | i | nt | -4 | -12 | -0.4 | 5 | nt | -7 | nt
COc1cc2[nH]c(=O)n(-c3ccccc3)c(=O)c2cc1OC | nt | nt | -6 | nt | nt | nt | -1 | -2.8 | -6 | 2
CC(C)CCC1(CN2CCCC2=O)C(=O)NC(=O)NC1=O | 1.9 | nt | 9 | nt | nt | nt | -4 | 1.8 | -2 | -4
O[C@H]1[C@H](O)[C@@H](O)CN2CC[C@H](O)[C@H]12 | -3.0 | i | -1 | nt | nt | nt | 3 | -2.7 | -2 | nt
CC/C(=N\NC(=O)c1ccccc1Cl)c1c(O)n(C2CCCCC2)c(=O)[nH]c1=O | -15 | nt | -6 | -6 | -9 | 1.1 | 15 | -0.2 | -5 | -9
Cc1ccc(-c2cc(-c3ccccc3)cc(-c3ccccc3)[n+]2-c2ccccc2C(=O)O)cc1 | 5.1 | i | 45 | -31 | -30 | -16 | -31 | 4.4 | 31 | 96*
COc1ccc(N2CCN(Cc3nc4ccccc4[nH]3)CC2)cc1 | 3.4 | i | nt | -2 | -7 | -1.7 | nt | 8.6 | 1 | -8
N/C(=N\[N+](=O)[O-])N1CCN(C(=O)OC2CCCC2)CC1 | -5.0 | i | -5 | 2 | 8 | -1.2 | -12 | 3.8 | 6 | 2
CCC(CC)C(=O)NC1CCSC1=O (configuration not stated) | nt | nt | -19 | nt | nt | nt | 21 | 1.1 | -2 | 0
CCOC(=O)[C@]1(C#N)[C@@H]2C=CC(C(N)=O)=CN2[C@@H](C(N)=O)[C@@H]1c1ccc(F)cc1 | -2.2 | nt | -15 | 6 | 4 | 6.3 | -3 | 0.0 | -7 | 0
Cn1cc(C(=O)N2CCOCC2)c2ccccc21 | -0.1 | nt | -4 | 3 | 13 | 0.7 | 2 | -2.1 | -4 | -2
CC(C)(C)c1ccccc1O | nt | i | nt | -1 | 0 | -0.5 | 5 | nt | -5 | nt
C=C(C)CN1CC[C@]23c4c5ccc(O)c4O[C@H]2c2[nH]c4ccccc4c2C[C@@]3(O)C1C5 | nt | nt | 13 | nt | nt | nt | 36 | -0.7 | 22 | nt
O=C1CNC(c2ccccc2Cl)c2cc(Br)ccc2N1 (configuration not stated) | -1.9 | i | 0 | 2 | -3 | -0.8 | nt | -4.5 | nt | -1
Cc1nc2cc([N+](=O)[O-])ccc2c(=O)n1-c1ccc(Br)cc1 | -8.9 | i | -5 | 0 | 9 | 0.1 | -3 | 1.3 | -7 | 20
Cc1c(C(=O)N2CCC3(CC2)OCCO3)sc2ncnc(N3CCc4ccccc4C3)c12 | 0.6 | i | 9 | 7 | 10 | 2.8 | -8 | -2.7 | -7 | -1
CCOc1cc(C2NCc3ccccc3-n3cccc32)ccc1O (configuration not stated) | nt | nt | -9 | nt | nt | nt | 31 | 1.3 | -5 | 3
SMILES | MLL AF4-AF9 inh | FGF22 binding | T cruzi inh | Ecoli rRNA inh | Ecoli rRNA inh OD600 | Ecoli rRNA inh RFP | ALR H2O2 inh | RanGTP-Impb inh | Beta cell apopt | Calb FLC
OC(CN1CC=C(c2ccccc2)CC1)c1ccccc1 (configuration not stated) | -8.7 | i | 4 | 4 | 3 | -0.3 | -3 | 5.4 | 7 | 2
CC1(C)CN=C(Nc2ccc(F)c(F)c2)S1 | -2.8 | i | -16 | 3 | -2 | -0.3 | -4 | -2.1 | -4 | -3
CC(C)C(=O)NC(Oc1ccccc1Cl)C(Cl)(Cl)Cl (configuration not stated) | -0.3 | i | 0 | -14* | 8.5* | 2.9* | 3 | -3.1 | -3 | -5
CC(C)OCCCNC(=O)c1c(N)n(CC2CCCO2)c2nc3ccccc3nc12 (configuration not stated) | -28 | i | 21 | -3 | 1 | -16 | 30 | 103* | 4 | -13
COC(=O)C1=C(c2ccccc2OCc2ccccc2)C[C@@H]2CC[C@H]1N2C(=O)NCc1ccc(Br)cc1 | 0.2 | i | nt | 19 | 6 | 0.7 | -4 | nt | -4 | nt
CN(C)C(=O)Oc1ccc(Cl)c2ccccc12 | nt | nt | -23 | nt | nt | nt | -11 | -2.8 | 1 | -26
COc1ccccc1/C=C1\C(=O)NC(=S)N(c2ccccc2)C1=O | -2.3 | i | -16 | -1 | 6 | -2.2 | 6 | 4.0 | -4 | -13
O=c1[nH]c(=O)n(-c2cccc3ccccc23)c(O)c1/C=N/N1CCCCCC1 | 1.7 | i | -4 | 11 | -10 | -0.8 | -3 | 22* | 4 | 9
C=CCN1C(=O)NC(=O)C(Cc2ccc(OC)c(OC)c2)C1=O (configuration not stated) | nt | nt | -1 | nt | nt | nt | 0 | 0.2 | -5 | 5
CCc1cc(=O)oc2cc(OCC(=O)N3C[C@H]4C[C@@H](C3)c3cccc(=O)n3C4)c(Cl)cc12 | 3.2 | i | -10 | nt | nt | nt | -24 | -1.4 | nt | -2
CC(C)OC(=O)c1c(N)n(Cc2ccco2)c2nc3ccccc3nc12 | nt | nt | 11 | nt | nt | nt | 1 | ? | -6 | 8
CCn1c(O)c(C=NCCN2CCOCC2)c(=O)[nH]c1=S | nt | i | -10 | 16 | 4 | 3.7 | -3 | 3.5 | -5 | 2
O=C(N/N=C/c1c(O)n(CCC2=CCCCC2)c(=O)[nH]c1=O)c1ccccc1 | 2.6 | i | -10 | -10 | -15 | 30 | 9 | ? | 8 | 26
CCc1c(C)nc(N)nc1N1N=C1SC(C(C)=O)C(C)=O | -4.3 | i | -6 | 6 | -4 | 0.9 | 33 | -2.6 | -4 | -1
Cc1nn(Cc2ccccc2)c(Cl)c1C(=O)OCC(=O)N1CCCC1 | -0.2 | i | 2 | 21 | 7 | 1.4 | 1 | 4.1 | -8 | 23
CC(=O)OCC[N+](C)(C)C | 0.2&-1.5&-0.4&-1.4 | i | 18&-5&8 | 22 | 15 | 2.4 | -5&2 | 5.9&4.6&-4.9 | -1&-10&0 | 19
CCN(CC)CC(=O)Nc1ccc(Cl)cc1C(=O)c1ccccc1 | nt | nt | 3 | nt | nt | nt | 7 | 3.4 | 36 | 13
COc1ccc(N2C(=O)CC(=O)NC2=O)cc1 | nt | nt | -17 | nt | nt | nt | 0 | 0.0 | -1 | 8
CC(C)c1ccc(-n2c(O)c(/C=N/N3CCOCC3)c(=O)[nH]c2=S)cc1 | -2.3 | i | -10 | -3 | -1 | 27 | 37 | -2.0 | -3 | -21
Nc1ccc([As](=O)(O)O)cc1 | 0.7 | i | -7 | 8 | 20 | -2.6 | -27 | 6.3 | -1 | nt
CNCC(O)c1ccc(O)cc1 (configuration not stated) | -3.1 | i | -2 | nt | nt | nt | 4 | -6.0 | -13 | -5
COc1ccc(N2C(=O)/C(=C/c3ccc(N(C)C)o3)C(=O)NC2=S)cc1 | -2.3 | i | 4 | 1 | 7 | 1.3 | 10 | -28 | 6 | 5
CCN1CC2([N+](=O)[O-])CC=C(Cl)C([N+](=O)[O-])(C1)C2 (configuration not stated) | -1.8 | i | -5 | 6 | -1 | -3.6 | 14 | ? | -3 | 2
O=C1NC(=S)NC(=O)C1=Cc1ccc(OCC(=O)N2CCCC2)cc1 | -4.8 | i | -29 | 11 | 14 | -1.0 | 7 | -0.5 | 3 | 1
O=C1OCc2cc(N=Nc3c(O)[nH]c(=O)[nH]c3=O)ccc21 | -1.8 | i | 0 | 11 | 12 | 0.1 | -20 | -0.5 | 1 | -8
SMILES | MLL AF4-AF9 inh | FGF22 binding | T cruzi inh | Ecoli rRNA inh | Ecoli rRNA inh OD600 | Ecoli rRNA inh RFP | ALR H2O2 inh | RanGTP-Impb inh | Beta cell apopt | Calb FLC
CCc1sc(C(=O)N2CCC3(CC2)OCCO3)cc1Br | nt | nt | 0 | nt | nt | nt | -5 | -4.8 | 0 | 54
N=C1SCC(=O)N1Cc1ccccc1 | 1.3 | i | -1 | 13 | 6 | 1.3 | -11 | -2.1 | 4 | -3
CSc1ccc(CNC(C)C(O)c2ccccc2)cc1 (configuration not stated) | 1.8 | i | 12 | -6 | -5 | -0.9 | -9 | -3.1 | 4 | -7
CCN1C[C@]2(COC)CC[C@H](O)[C@@]34C5C[C@H]6[C@H](O)C5[C@](O)(C[C@H]6OC)[C@@H]([C@H](OC)C23)[C@@H]14 (some centres not stated) | nt | nt | -19 | nt | nt | nt | -44 | 8.0 | -3 | -5
O=c1[nH]c(=S)n(C2CC2)c(O)c1C=NCCc1ccccc1 | -2.2 | i | 8 | 3 | 0 | 3.7 | nt | -3.1 | -4 | 9
CCN1C[C@]2(OC(=O)c3ccccc3NC(C)=O)CCC(OC)C34C5C[C@H]6C(OC)[C@]5(O)[C@](O)(C[C@@H]6OC)C(C[C@@H]32)[C@H]14 (some centres not stated) | 3.3 | i | -9 | 5 | 9 | -2.4 | -13 | 1.1 | 2 | -10
COCCOC(=O)c1c(N)n(Cc2ccc(OC)cc2)c2nc3ccccc3nc12 | nt | nt | 27 | nt | nt | nt | nt | 8.5 | 6 | 35
Cc1c(N=Cc2c(O)n(Cc3ccccc3)c(=O)[nH]c2=O)c(=O)n(-c2ccccc2)n1C | 1.3 | i | -24 | -5 | 0 | -0.4 | -9 | -0.2 | -13 | 0
CCN(CC)CCN=Cc1c(O)n(CCC2=CCCCC2)c(=O)[nH]c1=O | nt | nt | -4 | 9 | 2 | 1.1 | 0 | 5.2 | -5 | -2
CC1CN(c2ccc([N+](=O)[O-])c(N3CCCCC3)c2)CCN1 (configuration not stated) | 7.0 | i | 7 | nt | nt | nt | 15 | 1.7 | 5 | -19
Cc1ccc(-n2c(O)c(/C=N/Nc3ccccc3)c(=O)[nH]c2=O)cc1C | 1.9 | i | 26 | -15 | 12 | 29 | 99* | -2.9 | -7 | -4
CCCCn1c(O)c(C=Nc2c(C)n(C)n(-c3ccccc3)c2=O)c(=O)[nH]c1=O | nt | nt | -14 | nt | nt | nt | -2 | 3.0 | 1 | 17

Source: PubChem (Broad Institute)
